# TRPML1 agonist: activates the human TRPML1 channel. TRPML1-expressing cells, Ca2+ dye fluorescence, FDSS; host cell line not named in the record; reference of the full effect not given here. 410,000 tested, 0.12% active. activation, % (test concentration not listed). Q9GZU1; in the data active = activation above about 50%; inconclusive = about 30% to 50%; inactive = below about 30%; further: 0% is about no effect; the text of the record puts the active cut at 80%
# Target sequence (Q9GZU1 whole entry, looked up): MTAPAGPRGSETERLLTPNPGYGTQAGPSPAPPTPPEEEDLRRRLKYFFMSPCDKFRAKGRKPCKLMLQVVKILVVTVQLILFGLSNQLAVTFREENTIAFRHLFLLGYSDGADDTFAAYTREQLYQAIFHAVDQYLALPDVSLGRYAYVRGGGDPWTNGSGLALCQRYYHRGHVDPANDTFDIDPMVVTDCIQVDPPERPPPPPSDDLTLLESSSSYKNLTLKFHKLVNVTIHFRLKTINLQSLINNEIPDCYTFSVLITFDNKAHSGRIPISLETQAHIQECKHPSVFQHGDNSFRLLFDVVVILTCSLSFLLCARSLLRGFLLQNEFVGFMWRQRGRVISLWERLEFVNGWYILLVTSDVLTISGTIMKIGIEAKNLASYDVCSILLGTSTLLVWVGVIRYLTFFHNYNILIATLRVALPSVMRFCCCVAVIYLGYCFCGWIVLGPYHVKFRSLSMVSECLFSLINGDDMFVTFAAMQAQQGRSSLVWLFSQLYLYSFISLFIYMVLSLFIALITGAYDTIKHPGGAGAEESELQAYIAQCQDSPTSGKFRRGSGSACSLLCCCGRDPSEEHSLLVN
#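 Agonist activity was taken from a 110 s kinetic Ca2+ dye read on the FDSS after pinning compounds onto TRPML1-DL cells. The cells were seeded at 1,500/well with Tet inducer, incubated about 16 h, then dye-loaded at room temperature.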
# gsp ag: agonists of gsp mutant (McCune-Albright syndrome) | gsp mutant cells, cAMP HTRF, 30 min; control for the full effect not named in the record | Potency, µM (top dose mostly 76.9 µM), without a hit: at the top dose activation (cAMP increase), actives largely listed as activators | 340,000 tested, 0.13% active; active = well fitted activation curve with a large enough effect; inconclusive = small, poorly fitted or top-dose-only effect, or another doubt; inactive = no such curve, though single readings can be large or run the other way; cell line not stated here;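 further: phosphodiesterase inhibitor Ro 20-1724 added with compounds to block cAMP breakdown; potency means the concentration at half of the fitted maximal effect; nearly all actives have a fitted effect of over 60% in size; about a fifth of the inactives were tested at one dose only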
#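 Cells stably selected in G418 were plated at 2000/well, grown 16-24 hr, then given compounds in DMSO with the PDE inhibitor […] (300 uM solution added) for 30 min at 37C; cAMP was read by HTRF.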
# ClpP mod: qHTS Assay for Activators of ClpP; ATP-dependent Clp protease proteolytic subunit (Bacillus subtilis (strain 168)), P80244; purified B. subtilis ClpP, FRET peptide cleavage, 20 min; Potency, µM (titrated, usually from 57.5 µM), for the others: at the top dose activity change, negative = active; 340,000 tested, 1.9% active; AID 651965, 2013; active = well fitted falling curve with a large enough effect; inconclusive = small, poorly fitted or top-dose-only effect; inactive = no such curve, though single readings can be large or run the other way; further: potency means the concentration at half of the fitted maximal effect; the source files actives as falling curves though it sought activators and does not explain the sign; nearly all actives have a fitted effect of over 65% in size; many hits overshoot -100%
# Target sequence (P80244 whole entry, looked up): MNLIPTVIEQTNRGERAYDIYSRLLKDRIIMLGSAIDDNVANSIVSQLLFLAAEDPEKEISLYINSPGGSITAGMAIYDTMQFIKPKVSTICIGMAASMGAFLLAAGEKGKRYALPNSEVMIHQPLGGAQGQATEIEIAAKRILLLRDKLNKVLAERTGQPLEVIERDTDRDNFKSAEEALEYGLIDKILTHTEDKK
#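 FRET quenching reversal measured ClpP activation: 10 microg/mL B. subtilis ClpP at pH 8 with the FRET-FV decapeptide, read at 430 nm after 320 nm excitation. The 20-min minus 0-min signal was scaled between DMSO/no-enzyme wells and ADEP (5.8 microM final).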
# gsp antagonist: gsp mutant antagonism; gsp-mutant cells, cAMP HTRF, 30 min; control for the full effect not named in the record; Potency, µM (series often up to 76.9 µM), for the others: at the highest dose activity change, negative = inhibition, most hits filed as inhibitors; 340,000 tested, 0.4% active; AID 624288; active = falling curve of any shape with a large fitted effect; inconclusive = falling curve, mostly with a smaller effect; inactive = flat or rising curve; cell line not stated here;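 further: intracellular cAMP measured with PDE inhibitor Ro 20-1724 present during compound exposure; potency means the concentration at half of the fitted maximal effect; on the % scale 0 is the no-effect control and ±100 the full control effect; nearly all actives have a fitted effect of over 65% in size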
#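 HTRF cAMP read-out (cAMP-d2 plus anti-cAMP antibody-K in lysis buffer, 30 min RT). Before lysis, cells are exposed to compounds with […] for 30 min at 37C in DPBS containing Ca/Mg, BSA and Tween 20.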
# TRPML1 blocker: inhibitors of human TRPML1 channel | Q9GZU1 | TRPML1-inducible cells, Ca2+ dye fluorescence, FDSS; hits give low values; inhibition of EC80 agonist-evoked calcium signal | activity change, negative = inhibition, % (concentration not given with the values) | 390,000 tested, 0.02% active | AID 624415; in the data active means activity change below about -50%; inconclusive means about -30% to -50%; inactive means above about -30%;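 further: stimulus is agonist 54-4 at its EC80 concentration; on the % scale 0 is the no-effect control and ±100 the full control effect; compound concentration not given in the record; the text of the record puts the active cut at -80%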
#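 Calcium fluorescence in TRPML1-DL cells induced overnight with Tet: a 110 s read after compound pin addition, then a 110 s antagonist read after challenge with 54-4 at 4 uM final (EC80).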
# Menin MLL FP FL: inhibitors of human menin-MLL interaction, wild-type MLL peptide; AID 1766; FP activity change, % at 61.4 µM; Fluorescence polarization, fluorescein-MLL peptide displacement from menin; 290,000 tested, under 10 active; inconclusive = falling polarisation curve, or a change in total fluorescence; inactive = total fluorescence flat and polarisation flat or rising; no compound was filed as active; the % refers to the polarisation; negative = inhibition;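 further: % of control where 0% means no effect; inhibitors lower the polarisation; unlabelled MLL peptide was the positive control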
# * marks the source's active call; other numbers are inactive results; ? = inconclusive; . = not tested or not shown; & = joins results of further samples; [ ] = dose if it differs, or a comment.
SMILES,TRPML1 agonist,gsp ag,ClpP mod,gsp antagonist,TRPML1 blocker,Menin MLL FP FL
O=C(COC(=O)C1=NN(c2ccccc2)C(=O)CC1)Nc1ccc([N+](=O)[O-])cc1C(F)(F)F,-0.5,-37%[inhibitor],1.1%,-14%,-10,.
COC(=O)C(C)N(c1ccc(OC)cc1)S(C)(=O)=O (stereo not drawn),1.0,-2%[15.4 µM],.,14%,9,-0.8
Cc1ccc(NC(=O)CSc2nnc3n2CCCCC3)cc1,0.8,-2%,-1.4%,8%,9,-0.1
O=C(O)C1OC(C(=O)O)C2C1C(F)(F)C2(F)F (stereo not drawn),1.1,20%,0.6%,2%,-6,-1.0
N/C(=N\OC(=O)/C=C/c1ccccc1)c1ccc(Cl)cc1,-0.1,17%[15.4 µM],.,-5%,-14,-0.1
CCC(C)NCCOCCOc1ccc(Cl)c2ccccc12 (stereo not drawn),3.3,16%,-4.8%,-5%,-4,-2.8
O=C(CN1C(=O)NC2(CCOc3ccccc32)C1=O)c1ccc(Cl)cc1 (stereo not drawn),-0.6,-6%[15.4 µM],.,11%,-15,.
C[n+]1ccccc1/C=N/O,-0.8&-0.2,.,1.0%&0.3%,-5%&0%,-5&19,2.1&10&-2.5
CC(=O)Oc1ccc(/C=C2/SC(=S)N(Cc3ccccc3)C2=O)cc1,0.8,-2%,.,13%,10,?
COc1cccc(NC(=O)CC2C(=O)NC3CCCCC3N2C(=O)c2ccc(F)cc2)c1 (stereo not drawn),0.8,?,-7.4%,-3%,0,-0.4
COc1cccc(NC(=O)Cn2c(=O)n(-c3ccc(C)cc3)c(=O)c3ccc(C(=O)NCc4ccco4)cc32)c1,1.2,.,?,.,-1,.
CC(O)c1nc2ccccc2n1CCCc1ccccc1 (stereo not drawn),1.1,6%,0.9%,6%,-7,4.2
NC(=O)CC(NC(=O)c1cccc(Br)c1)c1ccc(N2CCN(c3ccc(F)cc3)CC2)c([N+](=O)[O-])c1 (stereo not drawn),-0.5,.,-0.1%,7%,-4,-2.5
COc1ccccc1CNC(=O)C1CCCN(c2cnccn2)C1 (stereo not drawn),0.0,30%,.,2%,5,.
COc1ccc(N2CC(NC(=O)NCCC(C)C)CC2=O)cc1 (stereo not drawn),0.1,20%,2.4%,3%,-17,0.1
COc1ccc(CN(C)C(=O)Cc2ccc(S(=O)(=O)N3CCOCC3)s2)cc1OC,0.0,20%,-1.8%,-2%,-9,.
Cc1cc(NC(=O)CSc2ccc(-c3cccc([N+](=O)[O-])c3)nn2)no1,1.6,-3%[15.4 µM],0.8%,-18%,-8,3.6
O=C(COC(=O)c1c[nH]c2ccccc12)Nc1ccccc1,-0.5,7%[15.4 µM],-6.3%,-14%,1,.
CN(Cc1ccccc1)S(=O)(=O)c1ccc2c(c1)n(C)c(=O)n2C,0.3,-20%,-3.5%,-12%,-10,5.0
Cc1cc(OCC(=O)c2ccc(F)cc2)ccc1N1C(=O)CCC1=O,1.2,-26%,1.1%,5%,-13,4.0

# Profiles as entered above. Screens in order: TRPML1 agonist | gsp ag | ClpP mod | gsp antagonist | TRPML1 blocker | Menin MLL FP FL
# O=C(CN1C(=O)NC2(CCOc3ccccc32)C1=O)c1ccc(Cl)cc1 (stereo not drawn) reads -0.6 | -6%[15.4 µM] | . | 11% | -15 | .
# O=C(COC(=O)C1=NN(c2ccccc2)C(=O)CC1)Nc1ccc([N+](=O)[O-])cc1C(F)(F)F reads -0.5 | -37%[inhibitor] | 1.1% | -14% | -10 | .
# O=C(COC(=O)c1c[nH]c2ccccc12)Nc1ccccc1 reads -0.5 | 7%[15.4 µM] | -6.3% | -14% | 1 | .
# CCC(C)NCCOCCOc1ccc(Cl)c2ccccc12 (stereo not drawn) reads 3.3 | 16% | -4.8% | -5% | -4 | -2.8
# CC(O)c1nc2ccccc2n1CCCc1ccccc1 (stereo not drawn) reads 1.1 | 6% | 0.9% | 6% | -7 | 4.2

# Further records
SMILES,TRPML1 agonist,gsp ag,ClpP mod,gsp antagonist,TRPML1 blocker,Menin MLL FP FL
O=C(Nc1cc2c(=O)n(-c3ccc(Oc4ccccc4)cc3)ccc2oc1=O)c1ccccc1,-0.3,-1%[15.4 µM],.,.,32,0.5
COc1ccc(-c2nnc(SC(C)C#N)o2)cc1 (stereo not drawn),1.1,-56%[inhibitor],0.0%,-9%,-12,-0.9
Cn1c(=O)oc2cc(S(=O)(=O)N3CCN(c4ccccc4)CC3)ccc21,1.1,0%,1.4%,0%,-5,?
CCc1ccc(NC(=O)COC(=O)C2(c3ccc(Cl)cc3)CCCC2)cc1,4.3,18%,0.9%,-40%,-19,3.5
CC1CCCCN1S(=O)(=O)c1ccc(C(=O)Nc2nnc(-c3cccs3)o2)cc1 (stereo not drawn),-1.2,8%,-3.7%,?,0,1.0
CC(C)N(Cc1nc(-c2ccccc2)no1)C(=O)Cc1ccccc1,0.3,?,0.3%,-3%,19,2.6
CN(C(=O)/C=C/c1ccc2c(c1)OCO2)c1ccccc1,1.9,4%[15.4 µM],-0.6%,-5%,18,1.1
CCC(=O)Nc1nc2cc(OC)ccc2s1,-1.0,6%,-6.9%,-8%,16,1.0
O=C(COc1ccc(S(=O)(=O)N2CCCC2)cc1)NCc1ccccn1,0.7,?,.,0%,-6,-18
COc1ccccc1C(=O)N1CCN(c2ccccn2)CC1,0.3,-10%,?,-3%,2,0.5
N#C/C(=C\c1c[nH]c2ccccc12)C(=O)NCC1CCCO1 (stereo not drawn),-0.9,-2%,.,-1%,-14,2.7
CC(C)NC(=O)C1CCN(C2CCN(Cc3nc(C(C)C)cs3)CC2)CC1,-0.7,-12%,-1.3%,7%,3,-0.4
Cc1ccc(S(=O)(=O)N2CCCCC2)cc1NC(=O)c1c(-c2ccccc2)noc1C,-0.4,-12%,1.9%,3%,-8,.
c1ccc(-c2nnc(C(c3ccccc3)c3ccccc3)o2)cc1,2.2,?,-2.2%,-18%,-18,-0.6
O=C(Nc1ccc(Br)cc1)C1CCCC1,-0.1,2%[15.4 µM],2.8%,7%,9,1.3
N#Cc1c(-c2cccs2)cc(-c2cccs2)[nH]c1=O,0.3,31%[15.4 µM],.,7%,3,1.7
O=C(NCCc1ccc(Cl)cc1)C(=O)NCC(c1ccco1)S(=O)(=O)c1cccs1 (stereo not drawn),3.8,.,0.3%,.,13,.
N#C/C(C(=O)NCc1ccccc1)=C1\SC(CCO)C(=O)N1c1ccccc1 (stereo not drawn),-0.4,2%,0.5%,-3%,-7,?
CCN(CC)CCN1C(=O)C(O)=C(C(C)=O)C1c1ccc(OC)c(OC)c1 (stereo not drawn),3.5,13%,-1.9%,8%[15.4 µM],-6,3.2
COc1ccc(OCCCC(=O)OCC(=O)Nc2nnc(-c3ccccc3)o2)cc1,-0.1,-4%,-0.9%,-5%,0,.
O=C(Nc1ccccc1F)c1ccc([N+](=O)[O-])s1,-1.9,10%[15.4 µM],-6.9%,0%,6,-1.4
COc1ccccc1CCNC(=O)Cc1ccc(NC(=O)N2CCSc3ncccc32)cc1,0.7,.,-22%,.,-17,.
COc1ccc(F)cc1S(=O)(=O)NCC(c1ccco1)N1CCc2ccccc2C1 (stereo not drawn),-0.2,5%[15.4 µM],.,-6%,-9,.
CCC(C)n1cnc2c(=O)oc3ccccc3c21 (stereo not drawn),-0.3,-6%,0.6%,2%,-8,0.1
S=c1[nH]nc(-c2ccccc2)n1/N=C/c1c[nH]c2ccccc12,-0.9,-10%[15.4 µM],1.3%,2%,-13,-0.7
N#CC1=C(S)N(c2ccccc2)C(c2ccc(-c3cc(Cl)ccc3Cl)o2)NC1=O (stereo not drawn),0.5,?,-2.8%,4%,-19,16
O=c1[nH]c(=O)n(Cc2ccccc2)c2c1C(C(F)(F)F)(C(F)(F)F)N=C(c1ccco1)N2,1.0,-5%,-1.8%,35µM*,7,1.9
CCN(CC)CCNC(=O)c1ccc2c(c1NCCO)C(=O)c1ccccc1C2=O,-1.1,26%,-1.8%,-17%,26,-0.2
Cc1cccnc1N1C(=O)c2ccc(C(=O)O)cc2C1=O,.,18%,0.7%,13%,.,3.8
Cc1sc(NC(=O)/C=C/C(=O)O)c(C(N)=O)c1-c1ccc(C(C)(C)C)cc1,0.3,4%,0.5%,-17%,24,6.4
COc1cc(NS(=O)(=O)c2ccc(NC(=S)NC(C)=O)cc2)nc(OC)n1,0.7,14%,-3.5%,-6%,-1,.
Cc1ccc(NC(=O)CN(C)c2ccc(S(=O)(=O)N3CCCC3)cn2)cc1,2.3,-14%[15.4 µM],0.4%,-28%,1,3.3
CCN(CC)c1ccc(C(=O)NNC(=O)c2cccn2C)cc1,0.8,-34%[15.4 µM],.,4%,20,.
COc1cccc(CNC(=O)COC(=O)c2nc(Cl)c(Cl)c(Cl)c2Cl)c1,2.2,10%,-11%,-1%,5,.
Fc1ccc(CNc2nc(-c3ccccc3)nc3ccccc23)cc1,0.9,7%[15.4 µM],.,-16%,13,2.5
O=C(O)C1OC1(c1ccccc1Cl)c1ccccc1Cl (stereo not drawn),3.3,16%,-0.7%,-14%,0,.
CC1=C(C(=O)OC2CCCCCC2)C(c2cccc(Cl)c2)CC(=O)N1 (stereo not drawn),0.9,.,-5.1%,.,-13,.
CC1(C)CC(NC(=O)c2coc(=O)c(Br)c2)CC(C)(C)N1,0.0,-13%,?,-2%,-5,2.9
COc1ccc(C2CC(c3cccc(C(F)(F)F)c3)=NN2c2ccc(S(N)(=O)=O)cc2)cc1 (stereo not drawn),-1.1,.,4.0%,-1%,14,.
Nc1c(-c2nc(-c3ccccc3Cl)no2)nnn1-c1ccccc1C(F)(F)F,2.8,.,0.2%,.,-12,.
CCC(C)NC(=O)Cn1ccc2cc(S(=O)(=O)N3CCCCC3)ccc21 (stereo not drawn),-0.4,.,-4.9%,.,-4,.
Cc1cc2c(cc1S(=O)(=O)CCC(=O)NCCc1ccccc1)OCC(=O)N2,-0.5&3.5,-40%[inhibitor],1.3%&0.5%,1%,1&4,-1.2
CCCNC(=O)CC(NS(=O)(=O)c1ccc(OC)cc1)c1ccco1 (stereo not drawn),-0.2,-1%[15.4 µM],.,9%,-2,2.4
CCCCC(=O)Nc1ccc(C(=O)NCC(=O)OC)cc1,-0.2,-30%,-1.2%,10%,30,0.9
Cc1ccc(O)c(NC(=O)CCCC(=O)O)c1,1.0,3%,-0.8%,3%,-10,3.8
CC1=CC(C)C2(CO)COC(c3ccc(O)cc3)C1C2C (stereo not drawn),0.6,0%,.,9%,-7,-0.8
